Source: PubChem BioAssay (several laboratories)
Arbovirus inh – antivirals against arbovirus infection; arbovirus infection cell-based antiviral screen; inhibition, % at 10 µM; 0.37% of 200,000 active; AID 1251;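 active = inhibition from about 30%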;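 note: bluetongue infection of BSR cells; cell survival read as ATP light after 72 h; 0% = infected wells without compound and 100% = uninfected wells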
Mtb betalactam – beta-lactam sensitization of Mtb H37Rv | M. tuberculosis H37Rv growth with meropenem, percent inhibition; hits of this screen are not shown here | inhibition, % at 25 µM | 0.27% of 330,000 active | AID 434955;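 active = about 74% or more and at least 40 points above the plate without the antibiotic, then above 30% in a dose series; inconclusive = first-round hits that could not be retested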;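 note: growth measured after seven days incubation then overnight dye step; 0% = bacteria only wells and 100% = bacteria with antibiotic; twin plates without the antibiotic show which effects depend on it; some results filed as inactive read as strong as hits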
YopH inh – YopH (Yersinia) phosphatase inhibition; fluorescence Ex485/Em525; inhibition, %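 (about 10 µM by stock and volumes)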; 0.16% of 140,000 active;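 active = inhibition of 50% or more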;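 note: controls were vehicle for no effect and minimum signal wells for full effect; inactives centre near -20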
Mtb H37Rv – M. tuberculosis H37Rv growth inhibitors, H37Rv strain (AID 1626); M. tuberculosis H37Rv growth inhibition; higher % means a stronger effect; one-dose inhibition, % at 10 µM; IC50 in µM for titrated hits; 0.95% of 220,000 active;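 active = confirmed in a dose series; inconclusive = inhibition above 80% but not taken into the dose series; inactive = below 80% or under 30% at every dose of the series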;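 note: bacteria incubated seven days before Alamar blue readout; 0% = bacteria only wells and 100% = bacteria with antibiotic wells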
RecA intein inh – blocks M. tuberculosis RecA intein splicing | P9WHJ3 | cell-free RecA intein splicing, fluorescence | inhibition, %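 (about 9 µM by stock and volumes)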 | 0.75% of 290,000 active | AID 2221; in the data active = inhibition above about 30%; inconclusive = no clear call, values can overlap the other calls;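 note: 0% = vehicle wells and 100% = reference inhibitor control wells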
Target sequence (P9WHJ3 whole entry, looked up): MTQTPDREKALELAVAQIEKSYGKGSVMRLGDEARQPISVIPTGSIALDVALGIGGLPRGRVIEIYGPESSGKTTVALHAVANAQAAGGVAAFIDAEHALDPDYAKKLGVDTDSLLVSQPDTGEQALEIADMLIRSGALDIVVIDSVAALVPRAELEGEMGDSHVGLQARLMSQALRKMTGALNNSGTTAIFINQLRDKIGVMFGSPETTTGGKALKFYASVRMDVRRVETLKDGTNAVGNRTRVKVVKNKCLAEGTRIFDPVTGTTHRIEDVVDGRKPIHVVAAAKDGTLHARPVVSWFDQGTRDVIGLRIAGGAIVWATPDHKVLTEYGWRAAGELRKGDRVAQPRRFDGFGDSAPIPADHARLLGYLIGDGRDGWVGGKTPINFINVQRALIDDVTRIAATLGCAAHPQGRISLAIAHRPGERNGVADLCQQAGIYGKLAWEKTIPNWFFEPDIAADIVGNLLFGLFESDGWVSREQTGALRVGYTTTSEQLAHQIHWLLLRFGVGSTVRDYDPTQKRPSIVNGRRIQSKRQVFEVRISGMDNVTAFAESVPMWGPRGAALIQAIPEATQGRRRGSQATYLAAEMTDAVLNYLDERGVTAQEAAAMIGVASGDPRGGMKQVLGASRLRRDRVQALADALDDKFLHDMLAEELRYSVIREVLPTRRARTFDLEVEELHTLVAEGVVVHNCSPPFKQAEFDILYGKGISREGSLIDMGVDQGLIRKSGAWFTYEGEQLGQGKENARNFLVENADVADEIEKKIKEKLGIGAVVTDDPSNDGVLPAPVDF
Numbers without * were called inactive; ? = inconclusive; . = not tested or not shown. This is a subset; count on the stated rates, not on these rows.

The line under a structure holds: Arbovirus inh	Mtb betalactam	YopH inh	Mtb H37Rv	RecA intein inh
1: COc1ccc(C2CC(c3ccccc3)=NN2C(=O)COC(=O)c2ccc(S(C)(=O)=O)cc2)cc1 (configuration not stated)
    .	1	.	.	4.5
2: Cc1nn(Cc2ccc([N+](=O)[O-])cc2)c(=O)n1N(C)c1ncc(C(F)(F)F)cc1Cl
    14	1	-8	0%	5.3
3: COC(=O)c1c(C)nc2ccccc2c1-c1ccccc1
    -1	3	-16	16%	0.8
4: Cc1ccsc1C1NC(=O)c2c(sc3c2CCCC3)N1 (configuration not stated)
    22	?	2	3%	-4.7
5: CCN(CC)CC#CC(OC)(c1ccccc1)c1ccccc1
    2	-4	.	0%	0.3
6: CCN(CC)C(=S)Sc1c(-c2ccccc2)c2cc(Cl)ccc2[nH]c1=O
    -24	-8	2	0%	-1.0
7: O=C(COC(=O)c1cccs1)Nc1nc(-c2ccccc2)cs1
    -1	6	-28	-2%	1.9
8: Cn1c(C(=O)O)ccc1S(=O)(=O)N1CCCCCC1
    .	-5	.	.	1.2
9: CC1Cc2cc(S(=O)(=O)N3CCCCC3C)ccc2N1C(=O)C1CCC1 (configuration not stated)
    .	7	.	.	5.9
10: S=C(Nc1ccccc1)N1CCN(c2ccccn2)CC1
    3	9	.	-4%	-0.2
11: Cc1ccc(-c2c(C)sc3nc[nH]c(=O)c23)cc1C
    .	3	.	.	3.5
12: COc1ccc(-c2csc(-c3ccccc3)n2)c(OC)c1
    3	89	.	4%	12
13: Cc1ccc(S(=O)(=O)Nc2ccc(-c3cn4ccc(C)cc4n3)cc2)cc1
    -11	36	0	5%	1.2
14: COCCn1c(SCc2nc3ccccc3c(=O)[nH]2)nc2ccccc2c1=O
    10	3	.	-5%	4.0
15: COc1cccc(NC(=O)c2cc(C(=O)Nc3cccc(OC)c3)n(C)n2)c1
    -9	36	-17	6%	4.0
16: CC1CCCN(S(=O)(=O)c2ccc(NC(=O)CNC3CCCC3)cc2)C1 (configuration not stated)
    .	-7	.	.	-1.1
17: Cc1nnsc1C(=O)N/N=C/c1ccc(OC(F)(F)F)cc1
    5	10	.	12%	3.4
18: CCCP(=O)(CC(=O)N(CC)CC)c1ccccc1 (configuration not stated)
    2	-3	-21	-3%	0.5
19: COc1ccc(C2CC(=O)C(C=NCCN3CCNCC3)=C(O)C2)cc1OC (configuration not stated)
    4	.	-16	-10%	0.9
20: Cc1ccc(-c2csc(NC(=O)Cn3cnc4c3c(=O)n(C)c(=O)n4C)n2)cc1C
    -22	-2	-15	3%	.
21: O=S(=O)(Cc1ccccc1Cl)N1CCCCC1
    3	-7	-17	2%	-0.4
22: CCC(C)NC(=O)CNC(=S)N(Cc1ccccc1)Cc1cccnc1 (configuration not stated)
    6	-5	-3	47%	1.4
23: O=C(Cn1nc(C(=O)O)c2ccccc2c1=O)Nc1cccc(Br)c1
    .	-3	.	.	0.6
24: O=C(Cc1ccccc1[N+](=O)[O-])NCc1ccncc1
    3	5	.	1%	3.7
25: CC(C)c1nc(CNC(=O)C2CCC(=O)N(CCc3cccc(F)c3)C2)cs1 (configuration not stated)
    .	-8	.	.	-1.6
26: CCCCC(=O)Nc1sc(C(=O)N(CC)CC)c(C)c1C(=O)OC
    -13	1	-9	2%	-1.7
27: C=CCOc1ccc(/C(O)=C2/C(=O)C(=O)N(CCCN3CCOCC3)C2c2ccccc2)cc1 (configuration not stated)
    .	-10	-20	-2%	1.4
28: OCCN(Cc1ccccc1)C(=S)Nc1ccc(Cl)cc1Cl
    4	2	.	3%	6.5
29: COc1cccc(CNC(=O)c2ccc(C(=O)NCc3cccc(OC)c3)cc2)c1
    .	4	.	.	0.0
30: O=C(CSc1nc(-c2ccccc2)c(-c2ccccc2)o1)NC1CCS(=O)(=O)C1 (configuration not stated)
    -8	-7	.	0%	0.3

A different layout for 4 compounds above.
16. CC1CCCN(S(=O)(=O)c2ccc(NC(=O)CNC3CCCC3)cc2)C1 (configuration not stated)
  Arbovirus inh = .	Mtb betalactam = -7	YopH inh = .	Mtb H37Rv = .	RecA intein inh = -1.1
17. Cc1nnsc1C(=O)N/N=C/c1ccc(OC(F)(F)F)cc1
  Arbovirus inh = 5	Mtb betalactam = 10	YopH inh = .	Mtb H37Rv = 12%	RecA intein inh = 3.4
18. CCCP(=O)(CC(=O)N(CC)CC)c1ccccc1 (configuration not stated)
  Arbovirus inh = 2	Mtb betalactam = -3	YopH inh = -21	Mtb H37Rv = -3%	RecA intein inh = 0.5
19. COc1ccc(C2CC(=O)C(C=NCCN3CCNCC3)=C(O)C2)cc1OC (configuration not stated)
  Arbovirus inh = 4	Mtb betalactam = .	YopH inh = -16	Mtb H37Rv = -10%	RecA intein inh = 0.9

(listing goes on)
The line under a structure holds: Arbovirus inh	Mtb betalactam	YopH inh	Mtb H37Rv	RecA intein inh
31: COc1ccc(CNC(=O)C(=O)NCC2OCCN2C(=O)c2ccc(OC)cc2)cc1 (configuration not stated)
    .	-9	.	.	0.5
32: C[n+]1ccc(/C=C/c2c[nH]c3ccccc23)cc1
    -8	-6	2	55%	-3.6
33: O=c1[nH]c(Cc2ccc(Cl)cc2)nc2ccccc12
    -5	1	.	8%	-5.2
34: O=C(COC(=O)c1c2c(nc3ccccc13)CCN(Cc1ccccc1)C2)Nc1c(F)cccc1F
    19	-23	-39	94%	-0.8
35: O=C(NCCC1=CCCCC1)C1CCCN(c2nc3ccccc3o2)C1 (configuration not stated)
    -3	-17	-42	8%	-0.4
36: Cc1ccc(-c2nn(-c3ccccc3)cc2/C=C(\C#N)C(=O)NCc2ccccc2)cc1
    -22	6	-22	-1%	-4.9
37: Cc1ccc(NS(=O)(=O)c2ccc(C(=O)N3CC(C)CC(C)C3)cc2)cc1 (configuration not stated)
    .	-2	.	.	-0.8
38: Cc1noc(C)c1COc1ccc(C(=O)NNC(=O)c2ccccc2)cc1
    .	-3	.	.	-0.6
39: Cc1nn(-c2ccccc2)c2sc(C(=O)N(Cc3ccco3)C(C)C(=O)NC(C)(C)C)cc12 (configuration not stated)
    -19	-4	-35	.	1.9
40: O=C(Nc1cccnc1Cl)c1cccs1
    .	5	.	.	-0.1
41: CC(=O)Nc1ccc(C2NC(=O)CCC2[N+](=O)[O-])cc1 (configuration not stated)
    .	-3	.	.	-9.2
42: CSc1ccccc1C(=O)NCc1ccccc1C
    0	8	.	3%	0.8
43: CC(CN1CCOCC1)OC(=O)c1ccccc1Cl (configuration not stated)
    .	-6	.	.	-1.4
44: COc1ccc(-n2c(SCC(=O)N3CCC(C(=O)O)CC3)nc3ccccc3c2=O)cc1OC
    .	2	.	.	0.0
45: Nc1nnc(SCC(=O)NC2CCCCC2)s1
    -1	3	-6	3%	-0.2
46: CCOC(=O)N1CCN(S(=O)(=O)c2ccc(C(=O)Nc3sc4c(c3C#N)CC(C)(C)NC4(C)C)cc2)CC1
    .	-7	.	.	-2.6
47: CC1S/C(=C(\C#N)C(=O)NCc2ccco2)N(c2ccc(F)cc2)C1=O (configuration not stated)
    8	-13	-13	-2%	6.4
48: COc1ccccc1NCC(=O)NNCC(=O)Nc1ccc(F)c(Cl)c1
    2	-6	.	4%	8.3
49: CNC(=O)C(=O)Nc1nc(C23CC4CC(CC(C4)C2)C3)cs1
    7	31	.	63µM*	-1.6
50: O=C(NC12CC3CC(CC(C3)C1)C2)c1c(Cl)cccc1Cl
    .	5	.	.	1.3
51: COc1ccc(C2C(C#N)=C(N)OC3=C2C(=O)CCC3)cc1Cn1nc(C)c([N+](=O)[O-])c1C (configuration not stated)
    1	-10	-46	1%	3.5
52: CCOC(=O)c1c(C)n(Cc2ccco2)c2ccc(O)cc12
    6	-6	-27	-9%	-2.8
53: COc1cc(C(=O)NCC(=O)N/N=C(\C)Cc2ccccc2)cc(OC)c1OC
    .	4	.	.	-4.7
54: Cc1cc(NC(=O)Cc2c(F)cccc2Cl)no1
    6	4	-8	11%	-1.7
55: CCN(CC(=O)Nc1ccccc1C(F)(F)F)C(=O)c1cc2c(s1)CCCCC2
    .	-7	.	.	1.0
56: COc1cc(/C(C)=N\NC(N)=S)cc(OC)c1OC
    -2	.	-11	-15%	0.7
57: COCCNC(=O)c1cccc(NS(=O)(=O)c2cccc3cccnc23)c1
    7	-3	-17	2%	-1.4
58: COc1ccccc1CNc1cc(C)ccc1C
    5	-1	0	-13%	1.9
59: O=C(NCCc1ccc(Cl)cc1Cl)c1cncc(Br)c1
    .	8	.	.	-0.1
60: O=C(CN1CCN(c2ccccn2)CC1)Nc1ccc(Oc2ccccc2)cc1
    -16	77	-16	5%	0.9

Other compounds:
The line under a structure holds: Arbovirus inh	Mtb betalactam	YopH inh	Mtb H37Rv	RecA intein inh
61: CC[N+](CC)(CC)CC(=O)Nc1ccc(SC(F)F)cc1
    2	-2	.	1%	-1.6
62: Cc1cccc(OCCNc2cc(N3CCN(CCO)CC3)ccc2[N+](=O)[O-])c1
    -35	-1	-3	13%	-6.9
63: O=C(O)CSc1nnc(C2COc3ccccc3O2)n1-c1ccccc1 (configuration not stated)
    -1	-5	-22	-6%	.
64: Cc1cc(C(=O)OCC(=O)NCc2ccc(Cl)cc2)c(C)o1
    -5	2	.	2%	.
65: NC(=O)C(c1ccccc1)C1CCCCC1 (configuration not stated)
    11	-1	7	-4%	1.3
66: Cn1nc(C(=O)Nc2cccc(C(F)(F)F)c2)c2ccccc2c1=O
    -15	33	-44	.	-0.2
67: COc1ccc(-n2nc3c(N4CCC(C(=O)N5CCCCCC5)CC4)nnc(C)c3c2C)cc1
    .	1	.	.	-0.8
68: COc1ccc(CN2CCNC(=O)C2CC(=O)N(C)CC2CCOCC2)c(F)c1 (configuration not stated)
    .	10	.	.	-4.7
69: O=C(CSc1nc(-c2ccco2)cc(C(F)(F)F)n1)NC1CCCCCCC1
    -3	-4	-7	-3%	3.9
70: O=S(=O)(NCc1cc(-c2ccccc2)no1)c1ccccc1Cl
    13	0	.	2%	2.4
71: COc1ccc(C2c3ccc(O)cc3Oc3ncn(CCCO)c(=N)c32)cc1OC (configuration not stated)
    .	1	.	-3%	-0.7
72: CCn1c(=O)cc(OCC(=O)O)c2ccccc21
    5	-9	-32	-6%	-4.5
73: O=C(O)CCCCCN1C(=O)C(O)=C(C(=O)/C=C/c2ccccc2)C1c1ccccc1[N+](=O)[O-] (configuration not stated)
    -1	2	.	-10%	5.0
74: Cc1ccc(C(=O)NCC(=O)NCC(=O)OCc2ccc(Cl)cc2)cc1
    -1	5	-53	0%	-4.2
75: CCN=C1SC(CC(=O)NC(C)c2ccccc2)C(=O)N1CC (configuration not stated)
    0	3	.	-2%	-2.2
76: COc1cc(-c2nc(S(=O)(=O)c3ccccc3)c(N3CCOCC3)o2)cc(OC)c1OC
    8	2	41	-5%	.
77: Cc1cc(-c2ccc(C(C)C)c(S(=O)(=O)NCCN3CCC(C)CC3)c2)on1
    .	-8	.	.	-1.6
78: Cc1cccc(NC(=O)CSCC(=O)Nc2ccccc2N2CCCC2)c1
    .	-5	.	.	3.9
79: COc1ccccc1NC(=O)c1sc2ncn(Cc3ccccc3C)c(=O)c2c1C
    -8	-1	16	-3%	-0.8
80: COCCn1c(SCCOc2ccccc2)nc2ccccc2c1=O
    0	61	.	14%	9.2
81: CCOc1ccc(S(=O)(=O)NC2CCCC2)cc1
    .	-5	.	.	0.9
82: Fc1cccc(Cc2noc(CN3CCCN(C4Cc5ccccc5C4)CC3)n2)c1
    -17	7	.	-4%	-5.0
83: CCN1CCN(c2cn[nH]c(=O)c2Cl)CC1
    -1	1	.	-4%	-5.6
84: Cc1cccnc1NC(=O)Nc1ccc(Cl)cc1
    .	-5	.	.	-4.7
85: O=C(Nc1ccc(Br)cc1)C1CCCN(S(=O)(=O)c2cccnc2)C1 (configuration not stated)
    -5	-2	.	-3%	1.0
86: CN(C)S(=O)(=O)c1ccc(C(=O)Nc2nnc(-c3ccc4c(c3)CCCC4)o2)cc1
    -30	97	-1	?	-1.3
87: CC(=O)c1c(C)[nH]c(C(=O)CSc2nnc(-c3ccccc3)o2)c1C
    11	-6	-38	-5%	-0.8
88: CCc1cc(C(=O)c2ccccc2)c(N)s1
    .	8	.	.	6.4
89: CC1=C(C(=O)N2CCOCC2)C(c2cccc3ccccc23)NC(=S)N1 (configuration not stated)
    1	-7	-27	-5%	-0.2
90: COC(=O)c1ccccc1NC(=O)c1cccs1
    3	-2	-27	-7%	7.2
